High-throughput results (PubChem)
PKD1 inh – PKD1 (human) kinase inhibition; Q15139; PKD1 kinase fluorescence polarization assay; inhibition, %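 (about 10 µM by stock and volumes)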; 200,000 compounds, 0.056% hits; AID 797;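 active = inhibition of 50% or more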;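 also: controls were vehicle for no effect and a reference inhibitor for full effect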
HSV replic up – increases HSV replication in cells. HSV replication augmentation in cells, fold increase. 220,000 compounds, 0.005% hits. maximum fold increase;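 active = peak rise of 1.5-fold or more in the series; tested in PC3 cells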;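 also: first round at 10 µM; read as green reporter fluorescence; hits show the peak of a series up to 25 µM; 1 = signal of infected wells without compound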
GALR2 ag – activates the human galanin receptor 2; O43603; GALR2-expressing cells, agonist activation read-out; activation, %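 (tested at 5 µM)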; 140,000 compounds, 0.48% hits; AID 803;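 active = above mean plus 3 SD of all compounds, about 5% in these data, not always enough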;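 also: 0% = vehicle buffer wells and 100% = reference agonist at full effect; tested in CHO reporter cells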
Target sequence (O43603 whole entry, looked up): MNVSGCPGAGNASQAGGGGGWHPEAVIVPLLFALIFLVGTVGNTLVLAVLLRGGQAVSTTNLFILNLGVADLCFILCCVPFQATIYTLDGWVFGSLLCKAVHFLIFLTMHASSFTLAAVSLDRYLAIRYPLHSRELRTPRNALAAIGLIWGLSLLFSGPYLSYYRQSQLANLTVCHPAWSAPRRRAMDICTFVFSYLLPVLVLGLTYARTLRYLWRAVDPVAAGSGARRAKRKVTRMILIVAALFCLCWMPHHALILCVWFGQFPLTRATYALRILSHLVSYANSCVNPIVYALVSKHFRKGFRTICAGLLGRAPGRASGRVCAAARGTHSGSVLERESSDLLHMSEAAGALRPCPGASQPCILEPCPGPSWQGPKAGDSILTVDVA
RGS16-Gao – RGS16-Galphao interaction regulator (human); O15492+P09471; bead-based flow cytometry RGS16-Galphao binding, fluorescence; actives lie on both sides; binding response (% of control), % at 10 µM; 220,000 compounds, 0.38% hits;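 active = below 25% or above 175%, edge rows of some plates excepted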;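 also: Galphao activated by GDP with aluminum fluoride before binding; 100% = wells without compound and 0% = beads without RGS; some results beyond the cut were filed as inactive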
Target sequence (O15492 whole entry, looked up): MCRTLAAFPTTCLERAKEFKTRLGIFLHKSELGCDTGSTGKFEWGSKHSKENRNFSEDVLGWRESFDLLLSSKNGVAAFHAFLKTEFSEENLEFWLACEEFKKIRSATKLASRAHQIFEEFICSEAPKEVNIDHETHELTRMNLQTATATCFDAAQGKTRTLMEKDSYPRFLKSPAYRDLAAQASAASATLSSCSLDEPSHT
Target sequence (P09471 whole entry, looked up): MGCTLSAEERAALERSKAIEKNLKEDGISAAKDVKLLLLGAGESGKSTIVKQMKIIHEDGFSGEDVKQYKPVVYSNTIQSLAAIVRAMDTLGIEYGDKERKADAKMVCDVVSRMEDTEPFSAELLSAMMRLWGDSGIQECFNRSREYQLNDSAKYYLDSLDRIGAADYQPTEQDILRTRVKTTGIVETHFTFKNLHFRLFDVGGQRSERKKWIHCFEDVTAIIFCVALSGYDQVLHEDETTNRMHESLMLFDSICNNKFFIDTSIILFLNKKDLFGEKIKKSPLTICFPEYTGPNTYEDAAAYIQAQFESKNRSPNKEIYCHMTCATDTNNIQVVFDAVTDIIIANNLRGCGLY
INS promoter inh – TRM-6 insulin promoter activity inhibition | TRM-6 cells (human fetal islet line), insulin promoter-eGFP reporter, imaging; reporter expression induced with tamoxifen | inhibition, % at 2 µM | 130,000 compounds, 0.9% hits;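 active = inhibition above the mean plus 3 SD, with well images judged a real hit on visual review, cut at about 60% in these data, passing the limit was not always enough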
INS promoter inh cell count – also measured in INS promoter inh; calls as there; normalized cell count, %; measured here: cell count, toxicity; reference of the scale not given here;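 cells exposed to compound for 48 h; stained nuclei by imaging scaled within each plate; lower means fewer cells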
HSV replic up primary fold – second read-out of HSV replic up, no call of its own (marks repeat the call); fold increase; compound at 10 µM; measured here: primary screen fold increase 10 uM; tested in PC3 cells;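 GFP signal in the first replicate; 1 = infected wells without compound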
Numbers without * were called inactive; i = inactive; . = no result given. The order is random. About 1.3% of those tested had a hit in this group.

No.	mol	PKD1 inh	HSV replic up	HSV replic up primary fold	GALR2 ag	RGS16-Gao	INS promoter inh	INS promoter inh cell count
1	O=C(Nc1nc(-c2cccs2)cs1)c1cccc(S(=O)(=O)N2CCCCC2)c1	12	i	1.1	0.9	99	-41	65
2	O=C(ONC1=NCCCCC1)c1ccc(Cl)cc1	-2	i	0.86	-1.4	101	-20	138
3	O=C(Nc1ccc(NC(=O)c2cccs2)cc1)c1ccc(Br)o1	3	i	0.75	2.5	97	.	.
4	Cc1cc(NC(=O)c2c(-c3c(Cl)cccc3Cl)noc2C)n(C)n1	.	i	1	.	102	.	.
5	Cc1nc2ccccc2cc1OCc1ccc(Cl)cc1	7	i	0.84	0.3	112	.	.
6	O=C(Cc1cccs1)Nc1nnc(-c2ccncc2)s1	-6	i	0.75	-1.6	103	-9	109
7	Cc1ccc(-c2n[nH]c(=O)c3ccccc23)cc1S(=O)(=O)NCCO	-8	i	0.98	-3.1	102	25	93
8	Cc1ccc(NC(=O)Nc2nnc(CSCCOc3ccc(Cl)cc3)s2)cc1	3	i	0.98	0.0	65	-21	84
9	Cc1[nH]c2ccc(S(N)(=O)=O)cc2c1C	-4	i	0.89	-0.7	98	.	.
10	CC1CCc2cccc3c2N1c1cc(C#N)c(C#N)cc1O3 (configuration not stated)	-10	i	1.1	-2.2	122	-57	139
11	Cc1nnsc1Sc1ccccc1	1	i	0.95	.	104	-45	146
12	CCOc1ccc(C(=O)NCC(=O)OCC(=O)c2ccc3c(c2)-c2ccccc2C3)cc1	-11	i	1.2	0.1	102	.	.
13	O=c1oc2ccccc2cc1-c1nc2c(s1)CCCC2	9	.	.	17*	103	54	79
14	Cc1cccc(-n2c(-c3csc(C)c3)n[nH]c2=S)c1	3	i	0.93	-0.9	95	-43	87
15	CCC(C)(C)NC(=O)/C=C/c1cccs1	1	i	0.93	-0.8	79	.	.
16	CNS(=O)(=O)c1cnccc1N1CCN(c2cccc(Cl)c2)CC1	-3	i	1.1	-1.9	96	9	90
17	O=C(/C=C/c1cccc(Cl)c1)OCc1cn2cc(Cl)ccc2n1	1	i	0.94	.	110	.	.
18	COc1ccc(/C=C/C(=O)O)cc1S(=O)(=O)NCc1ccco1	.	i	0.77	.	108	.	.
19	O=C(Nc1cccc(O)c1)C(Cc1ccccc1)N1C(=O)c2cccc3cccc(c23)C1=O (configuration not stated)	0	i	0.95	10*	102	10	107
20	COC(=O)c1sccc1NC(=O)COc1ccc(Cl)cc1Cl	-2	i	0.95	-2.5	100	.	.
21	N#Cc1cc2c(nc1SCC(=O)NCc1ccc3c(c1)OCO3)CCCCC2	-1	i	1.2	0.8	101	-42	69
22	CCC(c1nnnn1CC1CCCO1)N(CCN1CCOCC1)Cc1cc2cc(C)ccc2[nH]c1=O (configuration not stated)	9	i	0.92	-2.7	111	-84	92
23	O=c1c(C(c2ccc(O)cc2)c2c(O)nc3n(c2=O)CCCS3)c(O)nc2n1CCCS2	-8	i	0.92	-0.8	106	33	148
24	Cc1c(C(=O)N2CCN(Cc3ccc4c(c3)OCO4)CC2)cccc1[N+](=O)[O-]	-3	i	0.97	-1.9	101	-17	112
25	Cc1ccc(O)c(NC(=O)CCC2CCCCC2)c1	-4	i	0.98	-0.8	93	-123	1
26	Cc1cccnc1NC(=O)C1COc2ccccc2O1 (configuration not stated)	6	i	0.98	.	96	.	.
27	CCOc1cc(C=O)c(Br)cc1OC1CCCC1	-9	i	0.94	0.5	103	23	88
28	Cc1cccc(Cn2c(SCC(=O)Nc3ccccc3)nc3c2c(=O)[nH]c(=O)n3C)c1	-8	i	0.86	-0.4	104	.	.
29	CCN(CC)C1CCCCC1NS(=O)(=O)c1ccc(Cl)cc1 (configuration not stated)	-12	i	0.91	-2.6	84	.	.
30	O=C(c1ccco1)N1CCN(c2nc3ccccc3c(=O)n2-c2ccccc2)CC1	-15	i	0.83	-1.2	107	.	.

Looked up by compound from the entries so far:
No.	mol	PKD1 inh	HSV replic up	HSV replic up primary fold	GALR2 ag	RGS16-Gao	INS promoter inh	INS promoter inh cell count
14	Cc1cccc(-n2c(-c3csc(C)c3)n[nH]c2=S)c1	3	i	0.93	-0.9	95	-43	87
11	Cc1nnsc1Sc1ccccc1	1	i	0.95	.	104	-45	146

Additional entries:
No.	mol	PKD1 inh	HSV replic up	HSV replic up primary fold	GALR2 ag	RGS16-Gao	INS promoter inh	INS promoter inh cell count
31	O=C(OCCN1C(=O)c2ccccc2C1=O)c1ccc(S(=O)(=O)N2CCCCCC2)cc1	-1	i	1	-2.0	112	.	.
32	CCN1CCCC1CNCc1ccccc1OCc1ccc(F)cc1 (configuration not stated)	-5	i	0.98	-1.9	99	-97	66
33	Cc1cccc(NC(=O)CSc2nnc(Cc3ccccc3)o2)c1	-3	i	1.1	.	100	-27	104
34	Cc1occc1C(=O)N/N=C/C(Br)=C/c1ccccc1	1	i	0.83	.	108	-67	136
35	CC(=O)c1c(C)[nH]c(C2=NNC(=NC(C)(C)C)SC2)c1C	0	i	1	.	108	8	109
36	CN1N=C2c3ccccc3CCC2C1c1ccc(C(F)(F)F)cc1 (configuration not stated)	.	i	1.1	.	98	.	.
37	COc1cc(C(=O)NC(=S)N(CCc2ccccc2)CCc2ccccc2)cc(OC)c1OC	0	i	0.87	0.5	99	-209	17
38	O=C(O)CC(NNC(=O)c1ccccc1)C(=O)Nc1ccc([N+](=O)[O-])cc1 (configuration not stated)	.	i	1	.	100	.	.
39	Cc1cccc(C2c3[nH]c4ccccc4c3CCN2C(=O)c2cc(CC(C)C)[nH]c(=O)n2)n1 (configuration not stated)	1	i	0.82	.	106	-14	103
40	COCCNC(=O)C1(C)C=CC2(CCCCC2)N1C(=O)c1ccccc1 (configuration not stated)	-6	i	0.89	-2.0	100	-100	128
41	Cc1cc(OCC(=O)C(C)(C)C)c2c(C)c(C)c(=O)oc2c1	-5	i	0.97	-1.4	101	-64	104
42	O=C(NC1CCN(Cc2ccccc2)CC1)c1cccc(S(=O)(=O)Nc2cc(C(F)(F)F)ccc2Cl)c1	13	.	.	-0.6	124	8	48
43	CC(O)c1nc2ccccc2n1CC(=O)Nc1ccc(F)cc1Cl (configuration not stated)	-7	i	0.95	.	101	.	.
44	CCOC(=O)C1C(C)=C(Nc2ccc(OC)cc2)C(=O)N1c1ccc(OC)cc1 (configuration not stated)	-7	i	0.93	-1.0	95	64	144
45	CCOc1ccc(-c2[nH]ncc2Oc2ccccc2OC)c(O)c1	-15	i	0.78	-4.6	91	.	.
46	O=C(c1ccc(Br)o1)N(c1ccc(Br)cc1)C1C=CS(=O)(=O)C1 (configuration not stated)	-3	i	0.81	-2.5	97	-13	117
47	Cc1cc(C)n(-c2nc(N(C)C)nc(N3CCOCC3)n2)n1	6	i	0.91	-0.7	84	-22	103
48	COc1ccc(S(=O)(=O)Nc2ccc(F)cc2)cc1N(C)S(=O)(=O)c1ccc(Cl)cc1	3	i	0.86	0.4	97	.	.
49	O=C(NNc1nc2c(F)cccc2s1)c1ccccc1	0	i	1	.	104	6	132
50	CN(C)S(=O)(=O)c1cccc(NC(=O)c2ccc(Sc3nncn3C)c([N+](=O)[O-])c2)c1	-1	i	0.97	.	101	.	.
51	Cn1c(N2CCN(c3ccccn3)CC2)nc2c1c(=O)n(Cc1ccc(Cl)cc1)c(=O)n2C	-10	i	0.96	-0.5	105	.	.
52	C/C(=N\Nc1ccc(Cl)cc1)c1ccccn1	-1	i	0.99	-0.2	105	16	128
53	Cc1cccc(NC(=S)N2CCN(c3ccccc3)CC2)c1	-1	i	1	.	110	-7	141
54	CC(=O)N1CCN(C(=O)Nc2cccc(C(F)(F)F)c2)CC1	0	i	0.95	-1.3	112	17	112
55	S=C(NCc1ccccc1)Nc1ccc2cn[nH]c2c1	.	i	1	.	101	.	.
56	Cc1nc2sccn2c1-c1nc(-c2cc3ccccc3o2)cs1	-1	.	.	-2.2	102	6	77
57	N#Cc1cccc(C#N)c1Oc1ccc(N)cc1	.	i	0.87	.	102	.	.
58	O=C(Nc1ccccc1F)C1(c2ccccc2)CC1(Cl)Cl (configuration not stated)	-3	.	.	-0.1	108	8	115
59	Fc1ccc(/C=C2\CCCC3=C2Nc2ncnn2C3c2ccc(F)cc2)cc1 (configuration not stated)	1	i	0.56	-0.3	99	38	89
60	CCN1CCN(CCCNC(=O)C2c3ccccc3C(=O)N(c3ccc(OC)cc3)C2c2ccc(OC)cc2)CC1 (configuration not stated)	-4	i	0.96	.	103	.	.
61	Cn1c(SCC(=O)NC2CC2)nnc1C(F)(F)F	-2	i	1.1	-0.3	102	.	.
62	N#Cc1cc[n+](CC(=O)c2ccc(NC(=O)c3ccccc3)cc2)cc1	.	i	0.99	.	93	.	.
63	CCNc1ccc(C(=O)OCC(=O)NCc2ccc(C)cc2)cc1[N+](=O)[O-]	-10	i	0.97	-1.1	104	.	.
64	Cc1cccc2cc(C#N)c(N3CCN(C)CC3)nc12	-8	i	0.79	-1.5	103	50	94
65	CSc1ccccc1C(=O)N1CCCCC1	-10	i	0.91	.	108	-19	120
66	Cc1cccc(NC(=O)CN2C(=O)S/C(=C\c3cccn3-c3cccc(C(=O)O)c3)C2=O)c1	1	i	1.1	.	116	.	.
67	COc1ccc2c(c1)c1ncn(CC3CCCO3)c(=O)c1n2C (configuration not stated)	.	i	0.89	.	107	.	.
68	COc1ccc(-c2nnc(NC(=O)c3ccccc3C)o2)cc1	.	i	0.86	.	119	.	.
69	C[C@@H]1CC=C[C@H]2[C@H]1C(=O)N(Cc1ccccc1)[C@H]2c1cccc([N+](=O)[O-])c1	.	i	0.77	.	97	.	.
70	Cn1c(=N)n(CC(O)c2cccs2)c2ccccc21 (configuration not stated)	-4	i	1.1	.	106	-14	96
71	O=C1NC(NS(=O)(=O)c2ccc(Cl)cc2)(C(F)(F)F)C(=O)N1c1ccccc1 (configuration not stated)	-2	i	0.91	-1.4	105	-7	119
72	CC1(C)CC(=O)C(C=NCCN2CCN(C(=O)CC3CCCC3)CC2)=C(O)C1	0	i	0.97	-0.9	105	43	124
73	O=C(NCc1ccco1)C1CCN(c2ccc(N3CCOCC3)nn2)CC1	-11	i	1	-1.0	101	.	.
74	CN(CC(=O)NCc1cccs1)S(=O)(=O)c1cccc2cccnc12	-7	i	0.91	0.3	121	.	.
75	COc1ccc(CCNc2oc(-c3ccc(C)cc3)nc2C#N)cc1OC	-2	i	1.1	-1.5	102	.	.
76	O=C(CNC(=O)c1ccccc1F)OCC(=O)N1CCCCC1	-6	i	0.93	-0.4	103	.	.
77	Cc1cc(/C=N/NC(=O)c2ccccc2F)c(C)n1-c1ccccc1	-6	i	0.87	.	95	.	.
78	COc1ccc(CNCCc2ccccc2)cc1OCC(N)=O	2	i	0.99	-1.1	103	-23	104
79	N#Cc1ccccc1NC(=O)Nc1cccc(Cl)c1	1	i	0.89	-0.8	100	21	147
80	CCOC(=O)C1=C(C)OC(N)=C(C#N)C1C1CCCCC1 (configuration not stated)	-11	i	0.87	-2.2	103	.	.
81	COc1ccc(N2C(=O)C(CC(=O)Nc3ccc(Cl)cc3)N(NC(=O)c3cccc(F)c3)C2=S)cc1 (configuration not stated)	.	i	0.74	.	97	.	.
82	C#Cc1cccc(NC(=O)c2ccc(Cl)cc2Cl)c1	.	i	0.91	.	97	.	.
83	CC(=O)Nc1cc(Cl)c(N=Cc2ccc(O)cc2O)cc1Cl	5	i	1.1	.	102	.	.
84	COc1ccc(C(=O)COC(=O)CNS(=O)(=O)c2ccc(C)cc2)cc1	-1	i	0.89	-0.6	101	.	.
85	CC(NC(=O)Nc1cccc([N+](=O)[O-])c1)(C(F)(F)F)C(F)(F)F	-15	i	0.97	0.2	130	.	.
86	CN(C)c1nc(NCc2ccccc2)nc(SCC(=O)Nc2ccccc2Cl)n1	-7	i	0.98	-2.7	105	0	97
87	CC(=O)Nc1ccc2c(c1)C(=O)N(c1ccc(C)cc1)C2=O	-6	i	0.98	-2.1	104	13	75
88	CS(=O)(=O)CCC(C(=O)N1CCOCC1)N1C(=O)c2cc(Cl)c(Cl)cc2C1=O (configuration not stated)	-6	i	0.9	-0.5	98	11	115

Down the list, quoted from above:
PKD1 inh for nos. 74–84: -7, -2, -6, -6, 2, 1, -11, ., ., 5, -1
HSV replic up for nos. 74–84: i, i, i, i, i, i, i, i, i, i, i
HSV replic up primary fold for nos. 74–84: 0.91, 1.1, 0.93, 0.87, 0.99, 0.89, 0.87, 0.74, 0.91, 1.1, 0.89
